# GIV Gai3 FP – inhibitors of GIV GBA-motif binding to rat Galpha-i3. Galpha-i3/FITC-GIV peptide fluorescence polarization, 90 min; active compounds read low; scaled: aluminum fluoride 0%, vehicle 100%. percent of control (FP), % (no concentration beside the values). actives 0.42% (n = 210,000);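 active = replicate mean at 85% of control or lower, very high polarization wells dropped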;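 also: wells of about 15 µL received 100 nL stock; the first replicate is given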
# Target sequence (P08753 whole entry, looked up): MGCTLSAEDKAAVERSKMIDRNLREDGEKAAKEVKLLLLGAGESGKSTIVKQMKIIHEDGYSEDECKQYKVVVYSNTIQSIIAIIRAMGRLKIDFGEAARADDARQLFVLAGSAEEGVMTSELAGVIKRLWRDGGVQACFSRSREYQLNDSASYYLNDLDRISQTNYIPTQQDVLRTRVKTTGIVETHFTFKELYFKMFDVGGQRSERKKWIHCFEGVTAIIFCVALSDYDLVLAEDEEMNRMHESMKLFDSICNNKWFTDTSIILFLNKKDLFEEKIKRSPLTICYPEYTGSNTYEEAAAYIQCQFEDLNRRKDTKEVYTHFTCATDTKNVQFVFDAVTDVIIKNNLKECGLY
# Sa growth 42C – inhibitors of Staphylococcus aureus growth at 42 °C; S. aureus RN4220 growth, OD600, 20 h; active compounds read low; relative growth, % (test concentration not listed); actives 0.53% (n = 170,000);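 active = growth at 42 °C up to 50% and 20 or more points under that at 30 °C, or under 10% at both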;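 also: 300 nL library stock went into each well; scaled to the means of positive and negative controls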
# HCMV UL50-53 inh – disrupts HCMV UL50-UL53 complex binding; HTRF UL50-UL53 interaction, normalized percent inhibition; inhibition, % (no concentration beside the values); actives 0.15% (n = 190,000); AID 1918969;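 active = both replicates at 50% or more, plus weaker picks with an unusually low signal ratio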;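 also: stock transfer was 100 nL into about 20 µL; 0% = negative control wells and 100% = wells with untagged competitor protein; inactives centre near -12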
# Sa growth 42C second temp – second read-out of Sa growth 42C, no call of its own (marks repeat the call); relative growth, %; measured here: growth at 30 °C;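 optical density after 20 h as mean of two plates; 100% = untreated growth and lower means inhibition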
# The depositor's hits bear a star; x = no result given; & = joins results of further samples.
SMILES,GIV Gai3 FP,Sa growth 42C,Sa growth 42C second temp,HCMV UL50-53 inh
O=C(Cc1ccccc1F)N1CCC(c2nc3c(nnn3Cc3cccc(Cl)c3)c(=O)[nH]2)CC1,105,20,24,3
Cc1cccc(OCC(=O)Nc2ccc3c(c2)N(C)C(=O)c2ccccc2S3)c1,100,116,100,x
O=C(Nc1ccc(F)cc1)c1ccc(CN2CC(=O)N3CCCCC3C2=O)cc1 (stereo unspecified),107,98,82,x
NS(=O)(=O)c1ccc(N=Cc2c3ccccc3cc3ccccc23)cc1,x,78,70,-33
O=C(CCn1cnc2ccccc2c1=O)Nc1ccccc1C(F)(F)F,108,96,101,-21
CCCCNC(=O)c1cn(C)c2ccc(S(=O)(=O)N3CCCC3)cc2c1=O,100,105,109,7
O=C(O)/C=C/C(=O)NNc1ncnc2ccccc12,x,103,87,-10
Cc1ccc(Cn2c(=O)c3ccccc3n3c(=S)[nH]nc23)cc1,96,x,x,-27
COc1ccc(C(=O)Nc2nc(CC(=O)NCCc3ccc(OC)c(OC)c3)cs2)cc1,107,x,x,-1
CC(c1ccco1)N(C(=O)c1ccc(F)cc1)c1ccccn1 (stereo unspecified),x,109,88,-36
COc1ccc(NC(=O)Cn2c(=O)n(C(C)C)c(=O)c3oc4ccccc4c32)cc1Cl,102,100,92,x
CN(C)S(=O)(=O)c1cccc(CSc2nnc(N)s2)c1,x,67,88,-34
CC(=O)Nc1nc(COC(=O)c2cc(=O)[nH]c3ccccc23)cs1,x,78,92,-28
CC(=O)Nc1ccc(NC(=O)C(c2ccccc2)N2Cc3ccccc3C2=O)cc1 (stereo unspecified),106,92,93,x
COc1ccc(Br)cc1CN(C)Cn1c(NCCO)nc2ccccc21,x,95,94,-6
CC(C)n1c(=O)c(=O)[nH]c2cc(-c3noc(-c4ccc(F)cc4)n3)ccc21,98,x,x,-25
O=C(CSc1nc2cc(Cl)ccc2s1)Nc1ccnn1C1CCCC1,x,103,93,-6
Cc1nc(Sc2ccccc2)c2oc3ccccc3c2n1,x,97,85,-9
COc1ccc(CCNC(=O)c2ccc(CSc3nc4ccncc4[nH]3)cc2)cc1OC,102,x,x,-17
CN(C(=O)CN1C(=O)c2ccccc2C1=O)c1ccccc1,x,92,97,-37
CCN(CC)C(=O)CCN1C(=O)c2cc(Cl)c(Cl)cc2C1=O,99,90,92,-80
CCc1ccc(C(=O)Nc2nnn(CC)n2)cc1,x,89,83,-9
N#Cc1c(SCC(=O)NCC2CCCO2)nc2c(c1-c1ccco1)CCCC2 (stereo unspecified),x,105,88,-24
COc1ccc(-c2cc(-c3ccccc3)nc(N3CCCCC3)n2)cc1OC,104,112,92,-7
CCOC(=O)N1CCC(NC(=O)C(C)n2c3ccccc3c3cnn(C)c(=O)c32)CC1 (stereo unspecified),106,102,91,-11

# The listing continues.
SMILES,GIV Gai3 FP,Sa growth 42C,Sa growth 42C second temp,HCMV UL50-53 inh
COC(=O)C(CO)Nc1ncnc2onc(-c3ccc(F)cc3)c12 (stereo unspecified),105&105,96,86,-9&-10
C=C1SC(Nc2ccc(C)cc2C)=NC1(CC)CC,102,110,106,x
CCn1c(=O)c2cc(C(=O)NCCCN3CCN(c4ccc(F)cc4)CC3)sc2c2ccccc21,99,103,92,-29
CCC(NC(=O)c1ccccc1)c1ccccc1 (stereo unspecified),106,107,99,-5
CCCCN(C)C(=O)CN1C(=O)CCn2nc(-c3cn(C)c4ccccc34)cc21,108,118,95,x
Cn1c(SCC(=O)NC2CC2)nnc1-c1cccs1,106,97,107,19
CCOC(=O)c1ccccc1NC(=O)CSc1ccc(-c2cccs2)nn1,101,107,88,x
O=C(NCCN1CCOCC1)c1cc2c(s1)-c1ccccc1OC2,99,100,77,-85
COc1ccc(CNC(=O)CN2CCC(=O)CC2)cc1,x,118,86,-23
CC1(C)NC(=O)c2ccccc2O1,99,91,86,-13
COc1ccc(-c2noc(CN3CCC(C(=O)Nc4ccccc4)CC3)n2)cc1OC,106,101,97,-8
CCC(C)NC(=O)c1ccc(NC(=O)C2=C(C)OCCS2)cc1 (stereo unspecified),106,101,90,-22
CC(=O)n1nc(-c2ccc(C)c(C)c2)nc1N,101,x,x,-8
C=CCNc1nc(Nc2ccc(-c3nc4ccccc4o3)cc2)nc(OCC)n1,107,106,64,x
COC(=O)c1ccc(C(=O)O)s1,95,113,81,0
COc1ccc(CCNC(=O)c2cc3c(=O)n(C)c4ccccc4c3n2C)cc1OC,101,120,91,x
CCCn1c(CCC(=O)Nc2ccccc2OC)nc2cccnc21,113,104,81,-30
Cc1[nH]cnc1CN1CCc2c(c3ccccc3n2C)C1=O,x,106,99,90*
COc1cc(C(=O)N(Cc2cccnc2)c2nc3cc(C)c(C)cc3s2)cc(OC)c1OC,97,120,90,x
CN(Cc1ccccc1)C(=O)C1CCN(S(=O)(=O)Cc2ccccc2)CC1,99&98,82,89,-13&-18
Cc1nc(-c2ccc(N3CCN(C(=O)Cc4ccccc4Br)CC3)cc2)no1,105,x,x,-42
CCOC(=O)c1ccc(NC(=O)c2noc3c2CCCC3)cc1,102,105,82,x
COC(=O)c1ccc2c(=O)n(CCO)c(SCCOc3ccc(Br)cc3)nc2c1,x,68,93,-23
O=C(CCCn1c(=O)[nH]c2ccccc2c1=O)NC1CC1,103,100,81,6
Cc1nn(C)c2c1c(C(F)(F)F)cc(=O)n2CC(=O)NCc1ccc(OC(C)C)cc1,109,87,96,x

# Reprinted at random: two compounds from above.
SMILES,GIV Gai3 FP,Sa growth 42C,Sa growth 42C second temp,HCMV UL50-53 inh
Cc1nc(-c2ccc(N3CCN(C(=O)Cc4ccccc4Br)CC3)cc2)no1,105,x,x,-42
COC(=O)c1ccc2c(=O)n(CCO)c(SCCOc3ccc(Br)cc3)nc2c1,x,68,93,-23

# Continuation.
SMILES,GIV Gai3 FP,Sa growth 42C,Sa growth 42C second temp,HCMV UL50-53 inh
Nn1c(SCC(=O)N2CCc3ccccc32)nnc1C(F)(F)F,x,84,93,-9
COc1cc(NC(=O)C2CCCN2S(=O)(=O)c2cc3c(cc2Cl)NC(=O)CO3)cc(OC)c1 (stereo unspecified),103,x,x,-18
CC1=C(C(=O)OCc2ccccc2)C(/C=C/c2ccccc2)N2C(=O)CCSC2=N1 (stereo unspecified),102,110,67,x
O=C(COc1cc(C(F)(F)F)cc(C(F)(F)F)c1)Nc1ccc2c(c1)OCO2,x,98,109,-6
Cc1ccc2ncc(C(=O)Nc3cccc(C(F)(F)F)c3)c(=O)n2c1,101,85,91,10
O=C(CSc1nc2ccsc2c(=O)n1Cc1ccccc1)NC1CCCC1,99,106,87,1
CCOc1ccccc1CNC(=O)c1oc2c(c1C)-c1nn(Cc3cccc(Cl)c3)cc1CC2,101,104,98,-18
CCOC(=O)c1cc(CN)c(C)o1,102,104,86,-15
CC1CCN(c2cn[nH]c(=O)c2Br)CC1,x,100,95,-32
Cc1cccc(C(=O)NCC(=O)OCc2cc(=O)n3nc(C)sc3n2)c1,102,110,90,x
Cc1ccc(CN2CCC(CNC(=O)Nc3cccc(Cl)c3C)C2)cc1 (stereo unspecified),97,86,81,-19
Cn1nc(C(=O)NCCN2CCC(Cc3ccccc3)CC2)c2c1-c1ccccc1OC2,96&98,85,46,-17
COc1ccc(NC(=O)Cc2c(C)nn(-c3nc(-c4ccccc4)cs3)c2C)cc1,99,x,x,-16
COc1ccc(Cl)cc1S(=O)(=O)Nc1ccc2[nH]c(=O)[nH]c2c1,101,117,86,-4
Cn1nc(OCC(=O)O)cc1C(F)(F)F,103,90,90,-5
CSc1nn(-c2ccccc2)cc1-c1nc(C(C)(C)C)cs1,104,90,63,-27
COc1ccccc1-c1cc(C(=O)Nc2cc(Cl)ccc2O)no1,106,100,88,-38
CCn1cc(CCCC(=O)O)c2ccccc21,100,98,83,x
Cc1cccc(CN2C(=O)c3ccccc3Sc3ccc(C(=O)N4CCCC4)cc32)c1,103,61,41,x
Cn1c(=O)cc(N)n(Cc2ccccc2)c1=O,x,92,90,-23
Cc1ccc(-c2nc(C(=O)Nc3ccc(C)c(F)c3)c3n2CCCCC3)cc1,116,x,x,-6
COc1ccc(C(=O)CC2(O)C(=O)N(CN3CCOCC3)c3ccc(Br)cc32)cc1 (stereo unspecified),104,81,84,-13
COc1cccc(N2C(=O)CSC23C(=O)N(Cc2ccccc2)c2ccccc23)c1 (stereo unspecified),103,102,86,x
Cc1nc2nc(-c3ccc(C(C)(C)C)cc3)nn2c(C)c1CC(=O)N(CCO)Cc1ccccc1,101,x,x,-4
Cc1ccc(-n2ncc3c(NC4CCCCC4)ncnc32)cc1Cl,104,113,83,x

# (further entries)
SMILES,GIV Gai3 FP,Sa growth 42C,Sa growth 42C second temp,HCMV UL50-53 inh
O=S(=O)(NN1CCOCC1)c1cccc2nonc12,105,97,93,-59
CCc1ccc(CN(C(=O)c2ccc(OC)cc2)C2CCS(=O)(=O)C2)cc1 (stereo unspecified),102,106,94,11
Cc1n[nH]c(C)c1S(=O)(=O)Nc1ccc(Br)cc1F,x,105,98,4
CN(C)c1ccc(CNC(=O)c2ccc(Cn3c(SCc4ccccc4)nc4cccnc43)cc2)cc1,98,110,93,-19
Cc1cc(=O)[nH]c(SCC(=O)N2CCCCC2)n1,97,109,103,16
COCCCN1CN=C(NS(=O)(=O)c2ccc(C)cc2)NC1,104,x,x,-2
Fc1cccc(CSc2ccc(-c3cccs3)nn2)c1,103,108,87,x
N#C/C(C(=O)NCc1ccco1)=c1/s/c(=C/c2ccncc2)c(=O)n1-c1ccccc1,108,99,101,7
CS(=O)(=O)N1CCCc2cc(C(=O)Nc3ccc(S(N)(=O)=O)cc3)ccc21,101,x,x,-15
COc1ccc(Oc2ncccc2NC(=O)c2ccc(OC)cc2)cc1,109,99,81,-41
COc1cc(/C=C(\C#N)c2nc3ccc(C)cc3[nH]2)ccc1OC(C)C,110,97,80,14
COc1ccc(CNC(=O)CSc2ncc3c(n2)-c2cc(Cl)ccc2N(Cc2ccccc2)S3(=O)=O)cc1OC,99,77,89,x
CCN(CC)C(=O)c1cnn(-c2ccccc2)c1NC(=O)c1ccco1,x,83,109,-2
O=C(NCc1noc2ccccc12)Nc1nc2ccccc2s1,98,95,96,2
CC(=O)Nc1ccc(NC(=O)CCc2c(C)nn(-c3cc(N(C)C)ncn3)c2C)cc1,101,x,x,-22
CN(C)S(=O)(=O)c1cccc(COC(=O)CN2CCCCCC2=O)c1,x,77,92,-12
CSc1nnnn1-c1c(C)cc(C)cc1C,108,107,103,1
Cc1cc(C)c(NC(=O)c2oc3c(c2C)-c2[nH]ncc2CC3)c(C)c1,102,100,80,-17
COc1cc(NC(=O)C2CCCN2S(=O)(=O)c2ccc3c(c2)CCCC(=O)N3)cc(OC)c1 (stereo unspecified),104,x,x,-27
N#Cc1ccc(Cn2cc(Br)ccc2=O)cc1,x,62,93,-16
COC(=O)c1cnc(Oc2ccc(N)cc2)cc1C(F)(F)F,101,117,97,0
O=C(NCc1ccco1)c1ccc2c(c1)N(Cc1ccccc1)C(=O)c1ccccc1S2,101,108,100,x
CCOC(=O)N1CCN(C(=S)NC(=O)c2cc(Br)ccc2Cl)CC1,x,83,95,-5
O=C(c1ccco1)N(Cc1ccccc1)Cc1cn(-c2ccccc2)nc1-c1cccs1,103,113,99,9
CCN(CC)S(=O)(=O)c1ccc(NCCc2ccccn2)nc1,x,92,98,-11
Cc1nc(C2CC2)ncc1-c1nsc(Nc2ccccc2)n1,108,100,79,0

# Entries listed so far that have an aryl thioether with sulfur outside any ring:
SMILES,GIV Gai3 FP,Sa growth 42C,Sa growth 42C second temp,HCMV UL50-53 inh
CN(C)S(=O)(=O)c1cccc(CSc2nnc(N)s2)c1,x,67,88,-34
O=C(CSc1nc2cc(Cl)ccc2s1)Nc1ccnn1C1CCCC1,x,103,93,-6
Cc1nc(Sc2ccccc2)c2oc3ccccc3c2n1,x,97,85,-9
COc1ccc(CCNC(=O)c2ccc(CSc3nc4ccncc4[nH]3)cc2)cc1OC,102,x,x,-17
N#Cc1c(SCC(=O)NCC2CCCO2)nc2c(c1-c1ccco1)CCCC2 (stereo unspecified),x,105,88,-24
Cn1c(SCC(=O)NC2CC2)nnc1-c1cccs1,106,97,107,19
CCOC(=O)c1ccccc1NC(=O)CSc1ccc(-c2cccs2)nn1,101,107,88,x
COC(=O)c1ccc2c(=O)n(CCO)c(SCCOc3ccc(Br)cc3)nc2c1,x,68,93,-23
Nn1c(SCC(=O)N2CCc3ccccc32)nnc1C(F)(F)F,x,84,93,-9
O=C(CSc1nc2ccsc2c(=O)n1Cc1ccccc1)NC1CCCC1,99,106,87,1
CSc1nn(-c2ccccc2)cc1-c1nc(C(C)(C)C)cs1,104,90,63,-27
CN(C)c1ccc(CNC(=O)c2ccc(Cn3c(SCc4ccccc4)nc4cccnc43)cc2)cc1,98,110,93,-19
Cc1cc(=O)[nH]c(SCC(=O)N2CCCCC2)n1,97,109,103,16
Fc1cccc(CSc2ccc(-c3cccs3)nn2)c1,103,108,87,x
COc1ccc(CNC(=O)CSc2ncc3c(n2)-c2cc(Cl)ccc2N(Cc2ccccc2)S3(=O)=O)cc1OC,99,77,89,x
CSc1nnnn1-c1c(C)cc(C)cc1C,108,107,103,1

# Bioassay records from PubChem.
